Rango dissoc inh: prevents RanGTP from dissociating the Rango-importin beta complex; AID 540253; O95149+P62826; Potency, µM (top dose mostly 46.1 µM), inactives show top-dose activity change, negative = inhibition; 0.071% of 340,000 active; Biochemical FRET Rango-importin beta, RanGTP-induced dissociation; active means falling FRET ratio curve, often poorly fitted, with flat reads before Ran was added; inconclusive means other falling curves, or compound fluorescence or quenching; inactive means flat or rising ratio curve;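 note: potency is the fitted concentration of half-maximal effect; % of control where 0% means no effect; nearly all actives have a fitted effect of over 45% in size; -100% = wells without RanGTP and RCC1; the record marks most hits as doubtful in a second field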
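Two FRET readings bracket the reaction: one 5 min after compound meets Rango–importin beta, another 45 min after RanGTP-RCC1 (0.6 uM Ran, 0.2 uM RCC1, 2 mM GTP) is added. Only the second defines inhibition.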
miR-21 reporter: miR-21 reporter, rising signal | HeLa miR-21 FLuc reporter, luciferase, 48 h | Potency, µM (titrated, usually from 38.3 µM), inactives show at the highest dose reporter change, positive = more light | 340,000 tested, under 10 active; active = well fitted rising curve with a large enough effect; inconclusive = small, poorly fitted or top-dose-only effect; inactive = no such curve, though single readings can be large or run the other way;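 note: % of control where 0% means no effect; miR-21 action dims this reporter so a rising signal means less miR-21 action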
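Compounds were titrated across several concentrations (up to approximately 40 uM) and incubated 48 hours with HeLa miR-21-FLuc reporter cells (miR-21 target sequence downstream of FLuc, endogenous miR-21). Readout was firefly luciferase luminescence after lytic detection reagent.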
Rango complex inh: prevents formation of the Rango-importin beta complex; Potency, µM (series often up to 92.2 µM), for inactives: at the highest dose inhibition of complex formation; Q14974; 0.031% of 340,000 active; Rango CFP/YFP FRET sensor + importin beta, 45 min; AID 540263; active = rising FRET ratio curve, often small or poorly fitted; inconclusive = mostly compound fluorescence or quenching in the first reads; inactive = flat curves in all reads;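 note: potency is the fitted concentration of half-maximal effect; 0% = DMSO wells and 100% = buffer wells lacking importin beta; nearly all actives have a fitted effect of over 15% in size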
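FRET biosensor Rango (snurportin 1 IBB between N-terminal EYFP and C-terminal Cerulean), 50 nM in PBS/1 mM DTT/0.02% Tween-20/0.1% BSA, preincubated 5 min RT with compound; 0.125 microM importin beta added, 45 min RT, CFP/YFP FRET ratio read.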
GLA inh pH 4.5: blocks human alpha-galactosidase A at pH 4.5; purified enzyme, 4-MU-alpha-Gal fluorescence, pH 4.5; activity change, negative = inhibition, % at 105 µM; 230,000 tested, under 10 active; inconclusive = small, poorly fitted or top-dose-only inhibition, or a rising curve; inactive = flat fitted curve, though single readings scatter; no compound was filed as active;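 note: 0% = full activity with enzyme and -100% = basal without enzyme; dose as in the result columns while the protocol names 77 µM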
Target sequence (P06280 whole entry, looked up): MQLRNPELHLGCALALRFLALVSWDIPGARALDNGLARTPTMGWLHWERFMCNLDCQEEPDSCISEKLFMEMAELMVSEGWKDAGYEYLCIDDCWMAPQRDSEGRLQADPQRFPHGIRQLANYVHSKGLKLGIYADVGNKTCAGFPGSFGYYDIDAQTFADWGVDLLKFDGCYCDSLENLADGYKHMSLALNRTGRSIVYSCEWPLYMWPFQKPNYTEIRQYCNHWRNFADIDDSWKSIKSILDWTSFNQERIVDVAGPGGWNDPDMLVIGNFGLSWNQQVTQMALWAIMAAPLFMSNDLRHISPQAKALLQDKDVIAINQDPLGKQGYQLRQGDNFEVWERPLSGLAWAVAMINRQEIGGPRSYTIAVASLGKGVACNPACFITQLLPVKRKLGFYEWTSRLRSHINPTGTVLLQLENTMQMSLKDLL
* marks the source's active call; other numbers are inactive results; ? = inconclusive; · = no result given; [ ] = remark or other dose.

SMILES | Rango dissoc inh | miR-21 reporter | Rango complex inh | GLA inh pH 4.5
Cc1ccc(S(=O)(=O)NCCCNS(C)(=O)=O)cc1 | 14% | 2% | 7.4% | -1
CCOc1ccccc1OC(C)C(=O)Nc1ccc(S(=O)(=O)N2CCCC2)cc1 (configuration not stated) | 9% | -1% | 0.6% | ·
CNC(=O)NC(=O)C(C)OC(=O)c1c(C)noc1C (configuration not stated) | 7% | -8% | 1.2% | -12
COc1ccc(C(=O)N/C(=C/c2ccc(Cl)cc2)C(=O)NCc2ccncc2)cc1 | -8% | -4% | 0.3% | ·
CC(C)(C)NC(=S)Nc1ccc(Nc2ccccc2)cc1 | -11% | 2% | -3.3% | -7
Cc1cccc(N2CCN(C(=O)c3ccc4[nH]c(C)c(C)c4c3)CC2)c1C | -11% | · | ? | ·
Cc1cc([N+](=O)[O-])nn1Cc1ccc(C(=O)N/N=C/c2ccc(N(C)C)cc2)cc1 | -12% | 0% | 2.0% | -5
COc1ccc(CNC(=O)c2c(C)cc(=O)oc2C)cc1 | 4% | 5% | 1.7% | 2
CCC(=O)Nc1cccc(NC(=S)NC(=O)Cc2ccccc2)c1 | 6% | -3% | 1.8% | 8
CCOc1cc2c(cc1/C=C/C(=O)O)OC(C)C2 (configuration not stated) | -7% | 8% | -3.1% | ?
Cc1ccc(S(=O)(=O)N2CCC(=O)N(CCOCc3cccc(C)c3)CC2)cc1 | 8% | -16% | -0.8% | -13
Nc1nc(Nc2ccccc2)nc(N2CCCC2)c1[N+](=O)[O-] | 38% | -41% | 1.0% | ·
N/C(=N\OC(=O)c1ccccc1)C(C(=O)NOC(=O)c1ccccc1)C1CCCCC1 (configuration not stated) | 3% | · | 0.1% | ·
Cc1ccc(NS(=O)(=O)c2cccc(C(=O)N3CCN(c4ncccn4)CC3)c2)cc1 | 7% | · | -4.3% | ·
CS(=O)(=O)c1ccc(Cl)c(NC(=O)C2CCCCN2S(=O)(=O)c2ccccc2)c1 (configuration not stated) | ? | · | -0.3% | ·
Cc1ccccc1N1CCN(S(=O)(=O)c2cccs2)CC1 | 16% | 4% | -3.1% | ·
COc1ccc(-c2n[nH]c(=S)n2Cc2ccco2)cc1 | -5% | -4% | -3.2% | 10
COc1ccc(CCNC(=O)C2C3CCC(C3)C2C(=O)O)cc1OC (configuration not stated) | 20% | -7% | 6.8% | ·
Cc1ccc(N2CC(C(=O)Nc3nnc(SCc4ccccn4)s3)CC2=O)cc1 (configuration not stated) | -4% | -5% | 0.0% | ·
CC1Cc2ccccc2N1C(=O)CN1C(=O)NC(C)(CCc2ccccc2)C1=O (configuration not stated) | -1% | -5% | 4.3% | ·

A different layout for 2 compounds above:
mol	Rango dissoc inh	miR-21 reporter	Rango complex inh	GLA inh pH 4.5
Cc1ccc(NS(=O)(=O)c2cccc(C(=O)N3CCN(c4ncccn4)CC3)c2)cc1	7%	·	-4.3%	·
CS(=O)(=O)c1ccc(Cl)c(NC(=O)C2CCCCN2S(=O)(=O)c2ccccc2)c1 (configuration not stated)	?	·	-0.3%	·

Additional structures.
SMILES | Rango dissoc inh | miR-21 reporter | Rango complex inh | GLA inh pH 4.5
CCN(CC)CCN1C(=O)c2oc3ccc(F)cc3c(=O)c2C1c1ccncc1 (configuration not stated) | 4% | 0% | ? | 1
CCC(C)[C@H](NC(=O)Nc1ccc(Oc2ccccc2)cc1)C(=O)O (some centres not stated) | -16% | -6% | -0.4% | 4
Clc1ccc(-c2noc(COc3ccccc3)n2)cc1 | 0% | -18% | -0.1% | -2
Cc1ccc(NS(=O)(=O)c2ccc3c(c2)NC(=O)CO3)c(C)c1 | -15% | 2% | -2.5% | ·
CCCCNC(=O)CCn1c(=O)c2ccccc2n(Cc2ccc(F)cc2)c1=O | 10% | -7% | 0.6% | 4
Cc1ccc(NC(=O)CN2C(=S)NC(C)(C)CC2C)cc1Cl (configuration not stated) | -10% | 12% | -2.9% | -2
COc1cc(C)c(NC(=O)C(=S)N2CCCC2)cc1C | 5% | -4% | 0.7% | -5
CCC(=O)c1ccc(OC)c(OC)c1O | 0% | -6% | 4.6% | 6
O=C(Nc1cc(S(=O)(=O)N2CCOCC2)ccc1N1CCCC1)c1cnccn1 | 1% | -4% | 0.9% | 9
CN(C)C1=NC[C@H](Cc2ccccc2)N1CC1CCC(C(C)(C)C)CC1 (some centres not stated) | 49% | 17% | 2.2% | ·
O=C(NNC(=O)C12CC3CC(CC(C3)C1)C2)c1ccccc1F | 14% | -4% | -2.0% | ·
COc1ccc(CCNC(=O)C(=O)NCC2OCCN2S(=O)(=O)c2ccc(F)cc2)cc1 (configuration not stated) | -7% | 2% | ? | ·
O=C(Nc1ccc2oc(-c3ccccc3)nc2c1)c1ccncc1 | 1% | -5% | -2.7% | 3
N#Cc1c(N)n(-c2ccc(N)cc2)c2nc3ccccc3nc12 | 2% | -21% | 0.0% | -10
Cc1cc(C(=O)N/N=C/c2cc(Br)cc([N+](=O)[O-])c2O)c2ccccc2n1 | -2% | 15% | 5.7% | -5
COc1cccc(NC(=S)NC(=O)c2cncc(Br)c2)c1 | 0% | · | 0.3% | ·
CCOCCn1c(=O)c2c(nc3n2CC(C)CN3Cc2ccccc2)n(C)c1=O (configuration not stated) | -13% | 3% | 0.0% | ·
CC(=O)N(/C=C1\SC(=S)N(c2ccccc2)C1=O)c1ccccc1 | 16µM* | -17% | ? | -6
CCCCC(CC)C(=O)NCc1ccc(F)cc1 (configuration not stated) | -6% | -1% | -1.2% | 7
CCOC(=O)c1ccccc1NC(=S)N1CCC(N2CCCCC2)CC1 | 5% | -8% | -1.0% | 4

Full records as entered above.
Cc1cccc(N2CCN(C(=O)c3ccc4[nH]c(C)c(C)c4c3)CC2)c1C in the list: Rango dissoc inh = -11%; miR-21 reporter = ·; Rango complex inh = ?; GLA inh pH 4.5 = ·
CNC(=O)NC(=O)C(C)OC(=O)c1c(C)noc1C (configuration not stated) in the list: Rango dissoc inh = 7%; miR-21 reporter = -8%; Rango complex inh = 1.2%; GLA inh pH 4.5 = -12
Clc1ccc(-c2noc(COc3ccccc3)n2)cc1 in the list: Rango dissoc inh = 0%; miR-21 reporter = -18%; Rango complex inh = -0.1%; GLA inh pH 4.5 = -2

Going on with the list:
SMILES | Rango dissoc inh | miR-21 reporter | Rango complex inh | GLA inh pH 4.5
O=C(CSc1nnc(CNc2ccccc2)o1)N1CCCc2ccccc21 | -5% | 2% | 0.9% | -15
COc1cc(C(=O)NNC(=O)COc2ccccc2Cl)ccc1OCC(=O)N1CCOCC1 | 1% | · | 4.6% | ·
COc1cc2c(c(OC)c1O)C(=O)CO2 | 5% | 6% | 1.7% | 5
CN(c1ccccc1)S(=O)(=O)c1ccc(C(=O)Nc2ccncc2)cc1 | 8% | · | 1.3% | ·
CC(=O)Nc1ccc(NC(=O)[C@@H]2CCCN2S(=O)(=O)c2ccc3c(c2)OCCO3)cc1 | 0% | -11% | 1.0% | -4
COCCn1nnnc1C(c1cccc(C(F)(F)F)c1)N1CCOCC1 (configuration not stated) | 6% | 0% | 0.8% | -6
N#CCCN(C(=O)COC(=O)c1cccc(S(=O)(=O)N2CCCCCC2)c1)c1ccc(F)cc1 | -5% | · | 2.9% | ·
CCn1cnc2c(oc3ccccc32)c1=O | 2% | -22% | 1.2% | 1[21.1 µM]
CCN(C(=O)COC(=O)CSc1ccc(F)cc1)c1c(N)n(Cc2ccccc2)c(=O)[nH]c1=O | 8% | · | 0.6% | ·
COc1cccc(OC)c1C(=O)NCCN1CCN(C(=O)c2c(OC)cccc2OC)CC1 | -6% | 0% | -2.5% | -1
CCOC(=O)C1CCCN(C(=O)C2CCCN(S(=O)(=O)c3ccc4c(c3)oc(=O)n4C)C2)C1 (configuration not stated) | 30% | 6% | -1.7% | 3
CN(CCOc1ccc(Cl)cc1)C(=O)Cc1ccc(S(=O)(=O)N2CCOCC2)s1 | -3% | · | 2.7% | ·
CCN(CC)CCN(C(=O)Cn1nnc(-c2ccc(C)o2)n1)C(C(=O)NC1CCCC1)c1ccc(F)cc1 (configuration not stated) | 12% | -3% | -1.3% | ·
COc1cc2c(cc1OC)CN(S(=O)(=O)c1ccc(Cl)nc1)CC2 | 5% | · | 0.4% | ·
C=CCOC(=O)c1ccc(-n2cnc(C)n2)nc1 | 19% | -7% | 1.3% | -1
CC(=O)n1cc([C@@H]2C=C(C(=O)O)O[C@H](OCc3ccc(CO)cc3)C2)c2ccccc21 | -17% | 8% | -0.2% | -7
O=C(Nc1ccc(C(=O)N2CCOCC2)cc1)c1ccccc1 | -3% | · | 3.5% | ·
O=C(NCc1ccc(Cl)cc1Cl)C(=O)N1CCCCC1 | 3% | -5% | 0.7% | -6
O=C(COC(=O)COc1ccccc1)NC12CC3CC(CC(C3)C1)C2 | 6% | · | 0.6% | ·
O=C1C=C(NCCN2CCOCC2)C(=O)c2cnccc21 | · | ? | · | -4
CSc1ccc(/C=C/C(=O)c2ccc(NC(=O)Cc3ccccc3)cc2)cc1 | ? | 18% | ? | 13
CN1CCN(c2nc3ccccc3nc2NS(=O)(=O)c2ccc(Br)cc2)CC1 | -13% | · | ? | ·
CCOC(=O)c1cnn2c(C(F)(F)F)cc(-c3cn(C)nc3C)nc12 | 22% | 3% | -2.7% | 6
COc1ccc(C(=O)Nc2cccc(S(=O)(=O)N(C)C)c2)cc1S(=O)(=O)N1CCOCC1 | 1% | · | -2.3% | ·
O=C(NNS(=O)(=O)c1ccc(Br)cc1)c1ccccc1-n1cccc1 | 21% | -4% | -6.0% | ·
Cc1cc(C(=O)CSc2nc3ccccc3c(=O)n2C)c(C)n1CC1CCCO1 (configuration not stated) | · | ? | · | 0
CCSc1nc2sc3c(c2c(=O)[nH]1)CCCC3 | -17% | -8% | ? | -7
COCCN(C(=O)COC(=O)/C=C/c1ccc(SC)cc1)c1c(N)n(Cc2ccccc2)c(=O)[nH]c1=O | -1% | · | -3.8% | ·
Cc1ccc2[nH]c3c(=O)n(CCN4CCOCC4)cnc3c2c1 | 1% | -23% | -0.8% | -8
CCC(C)C(NC(=O)C1CCC(C)CC1)C(=O)NC(CCSC)C(=O)OC (configuration not stated) | -3% | 0% | -0.4% | -24
Cc1cccc(Cc2cnc(NC(=O)CN3C(=O)/C(=C/c4ccccc4)SC3=S)s2)c1 | -17% | 1% | -3.5% | -7
CCOC(=O)C1=C(C)NC(C)=C(C(=O)OCC)C1C(=O)OCC(=O)N1CCCCC1C (configuration not stated) | 8% | · | 1.5% | ·
Cc1[nH]c2ccccc2c1CCN(Cc1cccs1)C(=S)Nc1ccccc1 | 0% | ? | -1.5% | -1
CCc1c(-c2ccccc2)nc2nc(C)c(C)nn12 | ? | -26% | ? | 5
CCOc1ccc(S(=O)(=O)N2CCOCC2)cc1NC(=O)c1ccc(N2CCCC2=O)cc1 | 15% | · | -2.8% | ·
O=C(C1CCN(S(=O)(=O)c2ccc(F)cc2)CC1)N1CCCC(C(F)(F)F)C1 (configuration not stated) | 3% | · | -0.5% | ·
FC(F)(F)c1cccc(Cn2c3[n+](c4ccc(C(F)(F)F)cc42)CCCCC3)c1 | 2% | 21% | -0.3% | -9
Cc1ccc(C)c(S(=O)(=O)N2CCC(c3nc4c(nnn4Cc4ccc5c(c4)OCCO5)c(=O)[nH]3)CC2)c1 | -3% | -2% | -6.1% | ·
CCNC(=S)N/N=C/c1cccc(OCc2c(F)cccc2Cl)c1 | 1% | 19% | 0.1% | 14
C=CC[n+]1c(C)csc1Nc1ccc(C)cc1 | 33% | -27% | 0.0% | 0
COc1ccc(CN(C)C(=O)c2ccc(Cl)c(S(=O)(=O)NCc3cccnc3)c2)cc1F | 15% | · | 0.4% | ·
Cc1sc2c(c1C)CN(C1CC(C)(C)NC(C)(C)C1)CN2C(=O)c1ccco1 | · | -24% | · | -13
CC(=O)c1ccc(OCCCC(=O)OCc2nnc(-c3ccc(Cl)cc3)o2)cc1 | 5% | -15% | 6.6% | 10
O=C(N/N=C/c1ccccc1Cl)c1ccc(F)cc1 | 2% | -47% | -1.2% | -25
Cc1cc(C)nc(SCCn2c(N3CC(C)OC(C)C3)nc3c2c(=O)n(C)c(=O)n3C)n1 (configuration not stated) | 26% | 4% | -0.5% | 0
CCCCSc1nc(C)[nH]c1[N+](=O)[O-] | 10% | -2% | 9.3% | 3

The list is partial; the hit share may differ from the screen's.
